GIV Gai3 FP: blocks GIV peptide binding to rat Galpha-i3; P08753; Galpha-i3/FITC-GIV peptide fluorescence polarization, 90 min; stronger effect = lower value; scaled: aluminum fluoride 0%, vehicle 100%; percent of control (FP), % (test concentration not listed); actives 0.42% (n = 210,000); AID 1224905;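 active means replicate mean at 85% of control or lower, very high polarization wells dropped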;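 further: wells of about 15 µL received 100 nL stock; the first replicate is given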
Target sequence (P08753 whole entry, looked up): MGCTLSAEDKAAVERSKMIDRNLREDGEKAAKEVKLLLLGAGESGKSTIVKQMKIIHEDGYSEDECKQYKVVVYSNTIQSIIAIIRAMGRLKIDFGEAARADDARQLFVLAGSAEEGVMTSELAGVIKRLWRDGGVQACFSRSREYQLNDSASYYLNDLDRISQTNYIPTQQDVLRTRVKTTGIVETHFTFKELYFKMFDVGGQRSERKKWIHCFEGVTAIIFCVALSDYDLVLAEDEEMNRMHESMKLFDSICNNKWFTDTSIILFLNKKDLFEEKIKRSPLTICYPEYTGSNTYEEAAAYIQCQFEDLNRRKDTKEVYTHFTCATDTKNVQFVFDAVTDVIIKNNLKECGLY
HCMV NEC inh: disrupts HCMV UL50-UL53 complex binding; HTRF UL50-UL53 interaction, normalized percent inhibition; inhibition, % (test concentration not listed); actives 0.15% (n = 190,000); AID 1918969;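 active means both replicates at 50% or more, plus weaker picks with an unusually low signal ratio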;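 further: stock transfer was 100 nL into about 20 µL; 0% = negative control wells and 100% = wells with untagged competitor protein; inactives centre near -12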
Sa growth inh: S. aureus growth inhibition; S. aureus RN4220 growth, OD600, 20 h, 42 °C; stronger effect = lower value; relative growth, % (test concentration not listed); actives 0.53% (n = 170,000);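 active means growth at 42 °C up to 50% and 20 or more points under that at 30 °C, or under 10% at both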;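 further: 300 nL library stock went into each well; scaled to the means of positive and negative controls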
Sa growth inh second temp: further read-out of Sa growth inh, marked with its call; relative growth, %; measured here: growth at 30 °C;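 optical density after 20 h as mean of two plates; 100% = untreated growth and lower means inhibition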
* marks the source's active call; other numbers are inactive results; x = not tested or not shown; & = joins results of further samples. Not a hit list. Share with any hit: about 0.8%.

1	CC1CC(=O)c2cnc(Nc3ccccc3)nc2C1 (stereo not drawn)
2	COc1cccc(C2=NOC(C(=O)Nc3cc(C)on3)C2)c1 (stereo not drawn)
3	COC(=O)c1c(-c2ccc(Cl)cc2)noc1N1CCN(c2cccc(C)c2C)CC1
4	CS(=O)(=NS(=O)(=O)c1ccc(OC(F)(F)F)cc1)c1ccc(Cl)cc1 (stereo not drawn)
5	O/N=C/c1ccc(-c2ccc(F)cc2F)o1
6	CC(CO)(CO)NC(=O)NC1CCCCC1

assay / entry,1,2,3,4,5,6
GIV Gai3 FP,101,98,106,107,104,109
HCMV NEC inh,x,-2,x,12,-54,5
Sa growth inh,85,102,94,117,88,110
Sa growth inh second temp,87,88,84,97,85,98

Continued; the last four above are carried over.
3	COC(=O)c1c(-c2ccc(Cl)cc2)noc1N1CCN(c2cccc(C)c2C)CC1
4	CS(=O)(=NS(=O)(=O)c1ccc(OC(F)(F)F)cc1)c1ccc(Cl)cc1 (stereo not drawn)
5	O/N=C/c1ccc(-c2ccc(F)cc2F)o1
6	CC(CO)(CO)NC(=O)NC1CCCCC1
7	Nc1ccc(-c2ncc(-c3ccccc3)o2)cc1
8	Cc1onc(-c2ccccc2)c1CNC(=O)Nc1ccccc1
9	COC(=O)c1ccc(CSc2ncnc3c2cnn3-c2ccc(C)cc2C)o1
10	CCc1cc(CC)c(NC(=O)C(C)(C)C)c(CC)c1
11	O=C(Nc1cc(-c2ccccc2)[nH]n1)C1COc2ccccc2O1 (stereo not drawn)
12	CCOC(=O)c1cc2n(n1)CC(C)(C(=O)NC1CCCCC1)N(C1CC1)C2=O (stereo not drawn)

assay / entry,3,4,5,6,7,8,9,10,11,12
GIV Gai3 FP,106,107,104,109,x,97,107,99,100,98
HCMV NEC inh,x,12,-54,5,-41,-41,-8,x,7,-1
Sa growth inh,94,117,88,110,68,82,116,119,107,x
Sa growth inh second temp,84,97,85,98,68,85,89,93,99,x

13	COc1ccc(Cn2nnc3c(=O)[nH]c(C4CCCN(C(=O)c5ccccc5Cl)C4)nc32)cc1OC (stereo not drawn)
14	Cc1ccc(S(=O)(=O)N/N=C/c2c(O)[nH]c(=O)[nH]c2=O)cc1
15	COc1ccc(S(=O)(=O)N2CCC(NC(=O)c3ccccc3)CC2)cc1
16	Cc1ccc(-n2ncc3c(N4CCC(Cc5ccccc5)CC4)ncnc32)cc1
17	CCc1nn2c(=O)cc(COc3ccc(/C=C(\C#N)C(=O)Nc4ccc(C)cc4)cc3)nc2s1
18	CCOC(=O)C1CCCN(S(=O)(=O)c2ccc(Cl)cc2)C1 (stereo not drawn)

assay / entry,13,14,15,16,17,18
GIV Gai3 FP,104,x,106,101,100,97
HCMV NEC inh,12,8,2,x,2,7
Sa growth inh,115,97,67,94,89,100
Sa growth inh second temp,83,92,80,90,98,74

19	Cc1oc(-n2c(C)ccc2C)c(C#N)c1C
20	c1ccc(CN2CCN(Cc3ccccc3)C2c2ccc[nH]2)cc1
21	CC(=O)Nc1ccc(-c2cn3c(n2)SCC3)cc1
22	COc1ccc(C2C(C(=O)NCCCN3CCOCC3)c3ccccc3C(=O)N2c2ccc(OC)cc2)cc1 (stereo not drawn)
23	Cc1ccccc1-c1nc2scc(CCNC(=O)c3ccccc3)n2n1
24	Cc1nc(N)[nH]c(=O)c1Oc1cccc(C(F)(F)F)c1

assay / entry,19,20,21,22,23,24
GIV Gai3 FP,x,102,109,97,104,111
HCMV NEC inh,-6,-4,12,-4,13,-11
Sa growth inh,99,141,103,118,x,111
Sa growth inh second temp,83,104,95,85,x,97

Full records, looked up by structure:
COC(=O)c1c(-c2ccc(Cl)cc2)noc1N1CCN(c2cccc(C)c2C)CC1 in the list: GIV Gai3 FP: 106; HCMV NEC inh: x; Sa growth inh: 94; Sa growth inh second temp: 84
Cc1ccccc1-c1nc2scc(CCNC(=O)c3ccccc3)n2n1 in the list: GIV Gai3 FP: 104; HCMV NEC inh: 13; Sa growth inh: x; Sa growth inh second temp: x
Nc1ccc(-c2ncc(-c3ccccc3)o2)cc1 in the list: GIV Gai3 FP: x; HCMV NEC inh: -41; Sa growth inh: 68; Sa growth inh second temp: 68

Next section.
25	COC(=O)C1(c2ccc(OC)c(OC)c2)CCCC1
26	O=S(=O)(Nc1ccc(F)cc1F)c1ccc(Br)s1
27	N=C1S/C(=C\c2ccc(-c3cccc(Cl)c3)o2)C(=O)N1c1nccs1
28	COc1cccc(NC(=O)c2ccc3c(c2)CCN3C(C)=O)c1
29	COc1cc(C)ccc1OCCn1cccc1/C=C1\C(=N)N2N=C(N3CCCC3)SC2=NC1=O
30	CCn1c(SCC(N)=O)nc2c(c1=O)C1(CCCCC1)Cc1ccccc1-2

assay / entry,25,26,27,28,29,30
GIV Gai3 FP,107,110,115,110,100,101
HCMV NEC inh,15,0,-7,9,-59,0
Sa growth inh,91,115,x,x,90,89
Sa growth inh second temp,112,69,x,x,78,94

Four entries drawn at random from those above:
30	CCn1c(SCC(N)=O)nc2c(c1=O)C1(CCCCC1)Cc1ccccc1-2
27	N=C1S/C(=C\c2ccc(-c3cccc(Cl)c3)o2)C(=O)N1c1nccs1
26	O=S(=O)(Nc1ccc(F)cc1F)c1ccc(Br)s1
29	COc1cc(C)ccc1OCCn1cccc1/C=C1\C(=N)N2N=C(N3CCCC3)SC2=NC1=O

assay / entry,30,27,26,29
GIV Gai3 FP,101,115,110,100
HCMV NEC inh,0,-7,0,-59
Sa growth inh,89,x,115,90
Sa growth inh second temp,94,x,69,78

The listing continues.
31	Cc1ccc(Cc2cc(C)n[nH]c2=O)cc1
32	CCN1CCC2(CC1)OC(=O)C(C)=C2C(=O)Nc1ccc(F)cc1
33	Clc1ccc(Cl)c(-c2ccc(-c3nn4c(-c5ccco5)nnc4s3)o2)c1
34	CC1C(=O)C(C)C(c2ccc(N(C)C)cc2)NC1c1ccc(N(C)C)cc1 (stereo not drawn)
35	Cc1ccccc1Nc1nc(N)nc(CN2CCC(C)CC2)n1
36	Cc1c(C)n(CCN(C)C)c2ccc(C(=O)OCCN(C)C)cc12

assay / entry,31,32,33,34,35,36
GIV Gai3 FP,104,103,105,102,x,106
HCMV NEC inh,-29,-33,3,x,-30,x
Sa growth inh,85,86,x,115,80,97
Sa growth inh second temp,93,88,x,94,85,88

37	Cn1ccc(/C=C2/CCC/C(=C\c3ccn(C)n3)C2=O)n1
38	COC(=O)c1cc(S(=O)(=O)N(C)CC(=O)Nc2ccc(OC)cc2)cn1C
39	CCn1c(SCc2ccc(F)cc2Cl)nnc1-c1nonc1NC(C)=O
40	Cn1nc(C(=O)N2CCc3ccccc32)c2c1-c1cc(F)ccc1SC2
41	Cc1ccc(CCNC(=O)CN2C(=O)COc3ccc(S(=O)(=O)N4CCCCCC4)cc32)cc1
42	CCc1ccc(N2C(=O)c3ccncc3C2=O)cc1

assay / entry,37,38,39,40,41,42
GIV Gai3 FP,100,102,99,108,102,101&100
HCMV NEC inh,x,-8,6,-14,x,5
Sa growth inh,101,x,94,x,118,109
Sa growth inh second temp,69,x,94,x,88,87

43	Cc1noc(/C=C/N2CCOCC2)c1S(=O)(=O)N(C)CC(=O)NC1CCCCC1
44	CCC(C)NC(=O)c1cc(-c2ccccn2)nc2ccccc12 (stereo not drawn)
45	C/C(=C/C(=O)C(F)(F)F)N1CCN(c2ccccn2)CC1
46	Cc1cc(SCc2ccccc2)nc2ccccc12
47	CC(C)(C)NC(=O)NCc1ccco1
48	CCc1ccc(NC(=S)N(CCCN2CCCCC2)Cc2ccco2)cc1

assay / entry,43,44,45,46,47,48
GIV Gai3 FP,99,106,x,108,107,107
HCMV NEC inh,4,x,-22,x,2,-14
Sa growth inh,108,115,83,61,98,97
Sa growth inh second temp,91,74,93,96,97,84

49	COc1ccc(C2CC(=O)C3=C(C2)Nc2ccccc2NC3c2cccc([N+](=O)[O-])c2)cc1OC (stereo not drawn)
50	FC(F)(F)Oc1ccc(-c2nnc(-c3cccnc3)o2)cc1
51	Cc1ccsc1-c1nc(-c2cc3c(C)nn(-c4ccccc4)c3s2)no1
52	CCCNC(=O)CCc1nc(-c2ccccc2Cl)no1
53	O=C(O)c1cc2cccc(S(=O)(=O)N3CCCCCC3)c2cc1O
54	CCOc1ccc(NC(=O)c2ccc3[nH]c(C)c(C)c3c2)cc1

assay / entry,49,50,51,52,53,54
GIV Gai3 FP,107,101,41*,107,x,107
HCMV NEC inh,-54,-25,-14,8,-30,x
Sa growth inh,x,124,x,98,76,105
Sa growth inh second temp,x,81,x,90,96,100

55	CC1Cc2ccccc2N1C(=O)Cn1nc(-c2nccc3ccccc23)oc1=O (stereo not drawn)
56	Cc1ccc(CCc2nn3c(-c4ccncc4)nnc3s2)cc1
57	COc1cccc(-c2nn3c(-c4cccnc4)nnc3s2)c1
58	N#CC1=C(N)N(c2ccccc2)C(=O)C1
59	Cc1c(Br)c([N+](=O)[O-])nn1CC(=O)N1CCN(Cc2ccccc2)CC1
60	Cc1cc2ncn(C(=O)CCCOc3ccccc3)c2cc1C

assay / entry,55,56,57,58,59,60
GIV Gai3 FP,100,101,103,x,101,103
HCMV NEC inh,0,-23,-11,-28,-80,x
Sa growth inh,124,x,x,62,x,132
Sa growth inh second temp,90,x,x,79,x,91

61	CC(C)n1cnc2nc(COc3ccc(Cl)cc3NC(=O)Nc3ccccc3F)cc(=O)n21
62	O=C(Cn1c(=O)n(-c2ccc(Cl)cc2)c(=O)c2sc3ccccc3c21)NC1CCCCC1
63	O=C(NCc1ccccc1Cl)C1CCN(C(=O)c2ccco2)CC1
64	O=c1ncc(Oc2ccc(Cl)cc2Cl)c[nH]1
65	CCCCN(C)S(=O)(=O)c1ccc2oc(C(=O)O)c(C)c2c1
66	CC(CC(=O)NCCc1ccccc1)n1cccn1 (stereo not drawn)

assay / entry,61,62,63,64,65,66
GIV Gai3 FP,102,102,105,110,100,100
HCMV NEC inh,-10,-29,-22,-1,x,-43
Sa growth inh,x,102,104,107,90,100
Sa growth inh second temp,x,87,89,103,81,86

67	Cc1nn(-c2ccccc2)c2c1CN(C(=O)Nc1ccc3c(c1)OCO3)C(c1ccccc1)c1cccn1-2 (stereo not drawn)
68	Cc1ccc(Nc2cc(C(=O)NCCCN3CCOCC3)c3ccccc3n2)c(C)c1
69	O=C(Cc1ncc[nH]1)c1ccccc1
70	COc1ccc(NC(=O)c2ccnc(Nc3ccc(C(C)C)cc3)c2)cc1
71	O=C1CC(c2cccc(Br)c2)C2=C(CCCC2=O)N1 (stereo not drawn)
72	CCOc1ccc(N2C(=O)CC(c3ccc(OC)c(OC)c3)CC2=O)cc1

assay / entry,67,68,69,70,71,72
GIV Gai3 FP,103,101,x,101,104,97
HCMV NEC inh,0,x,-16,11,-1,-6
Sa growth inh,x,87,89,x,107,x
Sa growth inh second temp,x,88,83,x,81,x

Ordered by molar mass (smallest number first): 3 of the compounds above
69	O=C(Cc1ncc[nH]1)c1ccccc1
70	COc1ccc(NC(=O)c2ccnc(Nc3ccc(C(C)C)cc3)c2)cc1
72	CCOc1ccc(N2C(=O)CC(c3ccc(OC)c(OC)c3)CC2=O)cc1

assay / entry,69,70,72
GIV Gai3 FP,x,101,97
HCMV NEC inh,-16,11,-6
Sa growth inh,89,x,x
Sa growth inh second temp,83,x,x

Going on with the list:
73	COc1ccccc1-c1ccc(SCC#N)nn1
74	COc1ccc(NC(=O)CSc2ccc3nc(-c4ccccc4)cn3n2)c(OC)c1
75	Cc1ccc(S(=O)(=O)CC#N)cc1
76	COc1cc(C2C3=C(CC(c4ccc(Cl)cc4)CC3=O)Nc3onc(C)c32)ccc1O (stereo not drawn)
77	CNc1oc(-c2ccc(S(=O)(=O)N3CCCC3)cc2)nc1C#N
78	COc1cc(/C=C2\SC(=O)N(Cc3ccc(F)cc3)C2=O)c(Br)cc1OCC(=O)O

assay / entry,73,74,75,76,77,78
GIV Gai3 FP,110,112,105,106,101,105
HCMV NEC inh,-44,x,-1,-12,-32,-13
Sa growth inh,105,121,85,x,x,x
Sa growth inh second temp,102,73,78,x,x,x

79	Cc1cc(NC(=O)c2ccc3nonc3c2)on1
80	O=C(Nc1ccccc1N1CCOCC1)c1cc(=O)[nH]c2ccccc12
81	CCOc1ccccc1OCC(=O)Nc1ccc(S(=O)(=O)Nc2nc(C)cc(C)n2)cc1
82	CC(C)Oc1ccc(CNC(=O)c2cc3cccc4c3n2CC(C)S4)cc1 (stereo not drawn)
83	Cc1cccc(C(=O)Nc2sc(C)c(C)c2C#N)c1
84	Cc1ccc2c(c1)OC(c1ccc(N(C)C)cc1)N2 (stereo not drawn)
85	Cc1ccc(S(N)(=O)=O)cc1-c1nnc2c3ccccc3c(C)nn12
86	Cc1cccc(-n2nc(C(=O)N3CCCC3)nc2-c2ccccc2)c1
87	COc1ccc(C(=O)N2CCN(S(=O)(=O)c3ccccc3)CC2)cc1OC

assay / entry,79,80,81,82,83,84,85,86,87
GIV Gai3 FP,97,x,105,109,x,103,109,108,x
HCMV NEC inh,-147,-8,-29,x,0,-50,1,26,15
Sa growth inh,102,84,82,111,87,80,96,x,99
Sa growth inh second temp,84,97,76,81,86,58,72,x,108

Source: PubChem BioAssay
